E coli Lon inh: inhibits E. coli Lon protease; P0A9M0; purified E. coli Lon protease, fluorescence polarization; inhibition, % at 7.94 µM; 360,000 compounds, 0.42% hits; in the data active = inhibition above about 13%, passing the limit was not always enough;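 note: 0% = enzyme with probe and DMSO and 100% = no enzyme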
Neddylation inh: cullin neddylation inhibition; TR-FRET cullin neddylation, biochemical; calls only at 25 µM; 360,000 compounds, 0.58% hits; AID 651699; in the data active = inhibition above about 36%
CendR NRP1 mod: alters CendR peptide binding to human NRP-1. FAM-RPARPAR peptide binding to NRP-1, fluorescence polarization. 360,000 compounds, 0.85% hits. O14786. inhibition, % at 25 µM. AID 602438;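 active = inhibition or corrected inhibition above about 18%, plus a signal ratio from 0.5 to 1.5, limit read from the data, passing the limit was not always enough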; note: strong numbers were not always called active
PABP1 MLLE inh: inhibitors of microRNA-mediated deadenylation, human PABP1 MLLE binding. P11940. inhibition, % at 20 µM. GST-MLLE / FITC-PAM2 fluorescence polarization. 360,000 compounds, 0.36% hits; in the data active = inhibition above about 35%, passing the limit was not always enough;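 note: plate controls were DMSO wells with GST-MLLE for no effect and wells lacking GST-MLLE protein for full effect; some results filed as inactive read as strong as hits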
Target sequence (P11940 whole entry, looked up): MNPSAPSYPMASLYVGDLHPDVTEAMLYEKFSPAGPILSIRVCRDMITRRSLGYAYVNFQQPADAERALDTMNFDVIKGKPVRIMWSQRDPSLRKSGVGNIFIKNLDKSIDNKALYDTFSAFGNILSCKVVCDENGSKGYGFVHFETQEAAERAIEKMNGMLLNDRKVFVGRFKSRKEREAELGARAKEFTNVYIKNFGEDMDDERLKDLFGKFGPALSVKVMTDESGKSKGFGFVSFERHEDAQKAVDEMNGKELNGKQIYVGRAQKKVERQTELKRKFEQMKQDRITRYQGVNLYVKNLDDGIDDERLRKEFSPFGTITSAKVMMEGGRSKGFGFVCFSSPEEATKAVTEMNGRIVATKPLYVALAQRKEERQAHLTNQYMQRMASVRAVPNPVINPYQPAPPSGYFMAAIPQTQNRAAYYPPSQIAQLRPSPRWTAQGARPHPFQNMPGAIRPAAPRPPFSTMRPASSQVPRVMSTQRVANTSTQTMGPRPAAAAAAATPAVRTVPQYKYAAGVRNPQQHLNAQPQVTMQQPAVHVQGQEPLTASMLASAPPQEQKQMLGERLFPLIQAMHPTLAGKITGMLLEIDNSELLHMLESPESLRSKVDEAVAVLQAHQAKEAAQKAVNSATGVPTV
FAS TE block: FAS thioesterase (human) inhibition | recombinant FAS-TE, OMFH fluorogenic substrate, fluorescence endpoint | inhibition, % at 15 µM | 360,000 compounds, 0.67% hits | AID 602261;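 active = compounds whose normalised, plate-corrected inhibition of enzyme fluorescence in the single-dose primary screen is 50% or more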;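 note: 0% = DMSO with enzyme and 100% = substrate without enzyme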
Numbers without * were called inactive; i = inactive; . = no result given. An excerpt, so the mix of outcomes need not match the whole.

No.	SMILES	E coli Lon inh	Neddylation inh	CendR NRP1 mod	PABP1 MLLE inh	FAS TE block
1	CCN1/C(=C\C(C)=O)Sc2ccc(OC)cc21	-9.7	i	6.2	-124.9	-8.1
2	COc1ccc(Cl)cc1NC(=O)CN(C)C(=O)c1cc(-c2ccncc2)nc2ccccc12	-21.4	i	-45.0	-36.4	7.8
3	CN(C)S(=O)(=O)c1ccc2c(c1)/C(=C/c1cc3c([nH]1)CCCC3)C(=O)N2	-240.5	i	-189.9	-112.5	-36.4
4	CCOc1ccccc1C1NC(=O)c2ccccc2N1 (centres undefined)	-11.6	.	5.6	-7.1	-5.8
5	CCc1nc(N)nc(N)c1-c1ccc(NCCN)c([N+](=O)[O-])c1	2.8	i	1.1	-17.6	-5.6
6	Cn1c(=O)c2c(ncn2C)n(C)c1=O	-10.3	i	9.2	1.1	-3.0
7	CC(=O)Nc1cccc(-c2nnc(-c3ccc(C)cc3)o2)c1	-4.2	i	8.8	11.6	-5.1
8	COc1cccc(Nc2ncnc3ccccc23)c1	-3.4	i	2.8	8.8	-7.3

Random excerpt: 4 compounds from above
No.	SMILES	E coli Lon inh	Neddylation inh	CendR NRP1 mod	PABP1 MLLE inh	FAS TE block
1	CCN1/C(=C\C(C)=O)Sc2ccc(OC)cc21	-9.7	i	6.2	-124.9	-8.1
7	CC(=O)Nc1cccc(-c2nnc(-c3ccc(C)cc3)o2)c1	-4.2	i	8.8	11.6	-5.1
2	COc1ccc(Cl)cc1NC(=O)CN(C)C(=O)c1cc(-c2ccncc2)nc2ccccc12	-21.4	i	-45.0	-36.4	7.8
5	CCc1nc(N)nc(N)c1-c1ccc(NCCN)c([N+](=O)[O-])c1	2.8	i	1.1	-17.6	-5.6

One compound at a time, from the list above. Order of values: E coli Lon inh, Neddylation inh, CendR NRP1 mod, PABP1 MLLE inh, FAS TE block
COc1ccc(Cl)cc1NC(=O)CN(C)C(=O)c1cc(-c2ccncc2)nc2ccccc12 reads -21.4, i, -45.0, -36.4, 7.8
CN(C)S(=O)(=O)c1ccc2c(c1)/C(=C/c1cc3c([nH]1)CCCC3)C(=O)N2 reads -240.5, i, -189.9, -112.5, -36.4

(further entries)
No.	SMILES	E coli Lon inh	Neddylation inh	CendR NRP1 mod	PABP1 MLLE inh	FAS TE block
9	O=C(c1ccc(NS(=O)(=O)c2ccccc2)cc1)N1CCN(c2ccccc2)CC1	7.9	i	12.2	-0.8	-1.6
10	O=C(O)c1cc(NS(=O)(=O)c2cccc3ccccc23)ccc1O	-8.3	i	-14.6	14.9	-6.6
11	CC(C)C(=O)NC(=S)N(Cc1ccccc1)Cc1ccccc1	1.5	i	-7.0	-32.5	10.9
12	COc1ccc(C2CC(c3ccccc3)=NN2C(=O)CCCC(=O)O)cc1 (centres undefined)	-6.9	i	-9.5	8.4	-6.8

Taken from above.
Entry of CCN1/C(=C\C(C)=O)Sc2ccc(OC)cc21 in FAS TE block: -8.1
Entry of CN(C)S(=O)(=O)c1ccc2c(c1)/C(=C/c1cc3c([nH]1)CCCC3)C(=O)N2 in CendR NRP1 mod: -189.9

From PubChem
